Source: PubChem BioAssay (several laboratories)
Env fusion inh: blocks HIV Env-driven cell-cell fusion; inhibition, % at 12.3 µM; AID 651610; hit rate 1.1% among 360,000; HeLa-JRFL Env/CEM21 cell fusion, luciferase;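 active means mean replicate inhibition score of at least 50 and every replicate individually at or above 50; inconclusive means only one of the two criteria met; inactive means mean below 50 and not all replicates reaching 50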;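 further: 0% = plate neutral controls and 100% = maraviroc near 300 nM; one replicate is shown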
Rce1 inh: inhibitors of yeast Ras-converting enzyme. Q03530. hit rate 0.27% among 290,000. calls only. yeast membranes, quenched prenylated peptide cleavage fluorescence;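 active means fall in fluorescence gain of 50% or more versus controls, with final raw signal at or below 3038400; inconclusive means same 50% fall but final raw signal above 3038400; inactive means fall in fluorescence gain under 50%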;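 further: plate controls were neutral control wells for no effect and wells lacking membranes for full effect; tested at 10 µM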
Target sequence (Q03530 whole entry, looked up): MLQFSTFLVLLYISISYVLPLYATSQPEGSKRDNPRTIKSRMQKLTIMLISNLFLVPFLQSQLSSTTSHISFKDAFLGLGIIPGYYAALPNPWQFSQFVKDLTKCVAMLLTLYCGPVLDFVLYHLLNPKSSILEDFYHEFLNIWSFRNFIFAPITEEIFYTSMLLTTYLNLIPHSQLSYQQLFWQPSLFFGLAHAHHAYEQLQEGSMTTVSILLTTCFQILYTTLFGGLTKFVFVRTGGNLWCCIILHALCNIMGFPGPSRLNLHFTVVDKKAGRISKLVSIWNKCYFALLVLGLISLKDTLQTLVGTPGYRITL
PABP FP inh: blocks human PABP binding to poly(A) RNA. P11940. fluorescence polarization. inhibition, % at 35 µM. hit rate 1% among 290,000;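 active means 50% or more with normal probe brightness, or confirmed in later tests; inconclusive means above 50% with abnormal brightness, or retests that disagree; inactive means below 50% or failed in later tests; about a fifth of its hits are not listed in these tables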;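 further: calls also rest on retests at 20 µM and on dose response follow-up; controls were probe without protein and protein plus probe with vehicle; some compounds called inactive have numbers as strong as hits; many hits fall short of the cut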
MT1-MMP act inh: MT1-MMP (human) activation inhibition; HT1080 RFP-PRO-GFP cells, GFP/RFP ratio fluorescence, overnight; percent of plate control window, DMSO zero; GFP/RFP ratio change, % at 20 µM; hit rate 0.061% among 360,000; AID 651647;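 active means GFP/RFP ratio change of at least 30% with cell ATP level not reduced by more than half and red fluorescence within 50% of control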; further: strong numbers were not always called active
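Assay system: HT1080 RFP-PRO-GFP cells | Dosing: 20 µM single dose, 1% DMSO | Incubation: Cells overnight before dosing, compound overnight, 37 °C, 5% CO2 | Evaluation: GFP/RFP fluorescence ratio | Control set: DMSO-only wells and HT1080 RFP-L50D-GFP cell wells as references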
CSC inhib: blocks cancer stem cells; cancer stem cell-like cells viability, luminescence; hit rate 1.1% among 300,000; inhibition, % at 7.5 µM;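 active means mean at 75% or more and at least half the replicates too; inconclusive means mean and replicates disagree; tested in HMLE shEcad cells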;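 further: 0% = median of negative and 100% = median of positive control wells; the first replicate is given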
UUG fidelity: yeast start codon fidelity modulation; S. cerevisiae UUG-firefly luciferase reporter, luminescence/redox ratio; activity score, % at 18.7 µM; hit rate 0.13% among 350,000; AID 602363;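 active means replicate mean at a twofold rise or more, about +100% in these data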;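 further: firefly luciferase made from a UUG start codon reports start codon fidelity; reporter light over untreated wells divided by growth signal over untreated wells; some hits fall short of that in this replicate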
eIF4H FP inh: inhibitors of RNA binding by human eIF4H | Q15056 | eIF4H fluorescence polarization binding assay | inhibition, % at 35 µM | hit rate 0.94% among 290,000 | AID 2012;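 active means 50% or more with normal probe brightness, or confirmed in later tests; inconclusive means above 50% with abnormal brightness, or retests that disagree; inactive means below 50% or failed in later tests; about a fifth of its hits are not listed in these tables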;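 further: calls also rest on retests at 20 µM and on dose response follow-up; 0% = protein and probe with vehicle and 100% = probe without protein; strong numbers were not always called active; many hits fall short of the cut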
eIF4H FP inh retest: further read-out of eIF4H FP inh, marked with its call; inhibition, %; compound at 20 µM; confirmation average;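 mean of two retest wells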
PABP FP inh retest: recorded beside PABP FP inh, whose call it bears; inhibition, %; compound at 20 µM; confirmation repeats;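 mean of two retest wells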
MT1-MMP act inh RFP: further read-out of MT1-MMP act inh, marked with its call; RFP signal change, %; measured here: RFP expression control read;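 0 = vehicle wells; hits needed this value within 50% of zero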
* hit, by the source's call; i = inactive; ? = inconclusive; nt = no result given; & = joins results of further samples; [ ] = another dose, or the depositor's remark.

SMILES	Env fusion inh	Rce1 inh	PABP FP inh	MT1-MMP act inh	MT1-MMP act inh RFP	CSC inhib	UUG fidelity	eIF4H FP inh	others
CC1=NN(c2ccccc2)C(=O)/C1=C/c1c(O)n(-c2ccc(F)cc2)[nH]c1=O	-184.1	i	-0.6	5.5	6.6	87.3*	-16.1	-1.6
COc1ccc(CN(C)S(=O)(=O)c2nnc(NC(=O)c3ccccc3Br)s2)cc1	14.2	i	10.8	6.3	2.4	29.7	0.2	-6.0
C=CCS/C(=N\n1cnc2ccccc2c1=O)N(CC)CC	nt	i	-0.2	-1.1	2.9	-18.3	nt	5.6
O=C(CN1CCN(S(=O)(=O)c2ccccc2F)CC1)NCC1(N2CCOCC2)CCCCC1	-19.8	nt	nt	-5.1	1.2	nt	-9.7	nt
Cc1nc(C)c(/C(O)=C\c2nc3ccc([N+](=O)[O-])cc3oc2=O)o1	0.2	i	19.8	9.8	2.7	3.2	-17.1	19.9
O=C(Nc1ccc(F)cc1F)N1CCCCCC1	5.9	i	-4.2	0.4	-1.0	2.4	-11.9	-4.3
CCC(=O)N[C@H]1C=C[C@H](CC(=O)OC)O[C@@H]1CO	-22.4[16.7 µM]	nt	nt	-3.6	2.8	nt	11.7	nt
COc1ccc(-c2ccc(-c3nnc(-c4ccncc4)o3)cc2)cc1	nt	i	-29.0	nt	nt	nt	nt	6.2
O=C(Nc1cccnc1)Nc1ccc(F)c(Cl)c1	-56.0	i	-13.9	-3.6	-4.7	-4.4	-16.7	4.0
O=C(COc1ccccc1)N1CCN=C1SCc1ccccc1F	11.9	i	-14.9	5.7	3.6	-11.5	-8.9	7.9
C=CCOc1nc(-c2ccncc2)nc2ccccc12	nt	i	2.1	6.1	-3.1	16.3	-23.2	2.8
COc1ccc(S(=O)(=O)N(C)C[C@H]2OCc3cnnn3CCCC(=O)N([C@@H](C)CO)C[C@H]2C)cc1	-4.3	nt	nt	-0.7	1.4	nt	-1.7&-7.3	nt
CCOc1ccc(N2C(=O)CC(Sc3n[nH]c(-c4ccccc4)n3)C2=O)cc1 (stereo unspecified)	-10.4	nt	-12.0	2.7	4.2	-23.2	nt	0.2
CCN1CCN(c2ccc(NC(=O)c3ccc(Cl)c(S(=O)(=O)N4CCCC4)c3)cc2)CC1	-9.3	nt	nt	5.2	-2.5	nt	-16.2	nt
N=C1/C(=C\c2ccc(Br)o2)C(=O)N=C2SC(CC(=O)N3CCCCC3)=NN12	-66.3	i	22.0	-9.4	35.6	-2.7	-9.9	24.0
O=C(CN1C(=O)COc2ccccc21)c1cccc(Cl)c1	22.6	i	-1.5	4.4	-2.1	-8.9	-35.6	-0.7
COc1ccc(N(C(=O)c2ccc(F)cc2)C2=CC3CCC(C2)N3C)cc1 (stereo unspecified)	nt	i	7.1	-1.0	9.4	nt	2.5	-3.0
C/C(=N\NC(=O)c1cc(C)oc1C)c1ccc2c(c1)OCO2	15.9	i	7.6	3.3	4.6	-11.0	nt	5.6
CCOCCCN1CC(C(=O)NCc2ccc3c(c2)OCO3)CC1=O (stereo unspecified)	17.0	i	50.4	-4.5	-1.0	-3.6	nt	-1.8	eIF4H FP inh retest=4.9;PABP FP inh retest=41.4
CCC(C)Oc1cc(-c2ccnc(Nc3cccc(Cl)c3)n2)ccn1 (stereo unspecified)	66.3*	i	5.6	-18.0	-10.8	-6.5	-11.6	81.7	eIF4H FP inh retest=-7.7;PABP FP inh retest=1.3
CCC/C(C#CCCN1C(=O)c2ccccc2C1=O)=C1/c2ccccc2C(=O)N1c1ccccc1	-32.6	nt	nt	4.2	-4.1	64.2	-16.5	nt
Cc1ccc(-n2nc(C)c3c(-c4cccs4)c(C#N)c(N)nc32)cc1	-54.9	i	-9.2	-11.4	-6.8	60.0	nt	-16.7
O=C(NCc1ccccc1)c1cc(C2CCCCN2S(=O)(=O)c2cccc3cccnc23)on1 (stereo unspecified)	-128.0	nt	nt	0.0	-2.5	nt	-13.9	nt
COc1ccccc1CNC(=O)C1CCCN(S(=O)(=O)c2c(C)[nH]c(=O)[nH]c2=O)C1 (stereo unspecified)	nt	i	3.0	-5.0	0.3	-7.9	2.1	-2.4
COc1cc(NC2=Nc3cccc4cccc2c34)cc(OC)c1OC	-6.3	i	6.5	-25.6	-1.9	12.6	2.7	-11.5
Continued.
SMILES	Env fusion inh	Rce1 inh	PABP FP inh	MT1-MMP act inh	MT1-MMP act inh RFP	CSC inhib	UUG fidelity	eIF4H FP inh	others
C[C@@H]1CC=C[C@H]2[C@H]1C(=O)N(Cc1ccccc1)[C@H]2c1ccc2ccccc2c1	29.5	i	-4.2	-12.2	-12.2	86.5*	-14.5	0.1
CN(C)S(=O)(=O)c1ccc(C(=O)NCC(=O)Nc2ccc(F)c(F)c2)cc1	1.2	i	-5.5	-3.3	-3.3	-7.7	-11.8	-0.5
Cc1ccc(S(=O)(=O)Nc2ccccn2)c(C)c1	11.3	nt	nt	0.2	0.0	nt	1.6	nt
COc1cc(OC)cc(C(=O)NNC(=O)CN2C(=O)NC(C)(c3ccccc3)C2=O)c1 (stereo unspecified)	-3.3	i	nt	1.1	0.8	-7.0	-2.0	nt
Cn1nnnc1SCC(=O)c1ccco1	nt	i	3.0	1.3	3.2	-3.3	-1.2	-6.3
C[C@@H]1CN([C@@H](C)CO)C(=O)CCCn2cc(nn2)CO[C@H]1CN(C)S(=O)(=O)c1ccccc1C#N	-24.3	nt	nt	0.7	5.8	nt	8.8	nt
O=S1OC(c2ccccc2)c2cc(Cl)ccc21 (stereo unspecified)	-4.6	i	nt	-4.2	-4.9	6.3	-9.0	nt
C#CCNC(=O)C1=C[C@H](c2ccc(C(F)(F)F)cc2)[C@@H](CCCO)[C@H](OCC)O1	-9.4[16.7 µM]	i	3.2	2.1	3.6	-7.7	-1.8&-1.7	-10.8
CCn1c(SCC#N)nc2c(c1=O)C1(CCCC1)Cc1ccccc1-2	2.4	i	-0.7	-0.7	-12.7	70.7	-17.0	-9.0
CC(C)CN(C(=O)COC(=O)CSc1ccccc1)c1c(N)n(Cc2ccccc2)c(=O)[nH]c1=O	nt	i	nt	3.4	4.0	-5.9	-3.5	nt
Cc1noc(C)c1COC(=O)CCCc1nc2ccccc2s1	nt	i	3.2	-1.4	-3.2	-5.1	-13.9	2.8
O=C(CSc1nc2ccccc2c(=O)[nH]1)c1ccc(O)c(O)c1	nt	i	-3.4	12.3	-2.5	nt	24.7	16.3
CCOC(=O)c1ccc(NC(=O)C2C3C=CC(C3)C2C(=O)O)cc1 (stereo unspecified)	nt	i	1.0	2.6	4.7	-8.6	-1.8	-0.2
CC1=C(C(=O)Nc2ccccc2)C(c2ccccn2)n2ncnc2N1 (stereo unspecified)	nt	i	5.3	-0.6	5.9	0.3	-8.9	4.0
COc1ccc(N2CCN(C(=O)c3ccc4c(c3)CCN4S(C)(=O)=O)CC2)cc1	-4.0	nt	nt	2.9	0.5	nt	-13.6	nt
CCO[C@@H]1OC(C(=O)N2CCOCC2)=C[C@H](C(C)(C)C)[C@H]1CCCO	3.0	i	nt	1.5	1.1	-6.2	-10.9	nt
Cc1ccc(S(=O)(=O)NN=C2CC(C)(C)CC(=O)C2(C)C)cc1	13.5	nt	nt	6.5	6.1	nt	-20.3	nt
CC(C)CNS(=O)(=O)c1ccc(C(=O)Nc2ccc3c(c2)OCCO3)cc1	nt	i	-5.5	5.3	-8.3	1.1	nt	-3.8
CNC(=O)COC(=O)c1ccc([N+](=O)[O-])cc1Cl	-2.0	i	52.0	1.5	1.9	-0.8	nt	-4.4	eIF4H FP inh retest=2.6;PABP FP inh retest=-0.6
CN(c1c(C#N)c(C(F)(F)F)nn1C)N(S(C)(=O)=O)S(C)(=O)=O	8.5	i	2.8	1.3	4.4	-7.1	nt	8.8
CCc1cc2c(=O)c(-c3nc4ccccc4n3C)c(C)oc2c(CN2CCCCC2)c1O	-5.5	i	-7.9	2.2	6.3	-8.1	-8.2	-4.7
CC(=O)N[C@@H](CS)C(=O)O	nt	i	-2.5	3.3	1.6	nt	-15.8	-5.0
Cc1ccc2nc(-c3cccnc3)cc(C(=O)N3CCN(c4ccc([N+](=O)[O-])cc4)CC3)c2c1	17.3	i	-3.1	-7.4	-11.1	19.3	-7.7	-11.6
O=C(CS(=O)(=O)Cc1ccccc1)N1CCc2ccccc2C1	-8.6	i	3.4	2.5	5.1	nt	-4.7	-11.7
CCOC(=O)c1c(-c2ccccc2)oc2ccc(O)cc12	-7.8	i	0.7	1.6	1.7	34.4	6.6	-1.8
Next section
SMILES	Env fusion inh	Rce1 inh	PABP FP inh	MT1-MMP act inh	MT1-MMP act inh RFP	CSC inhib	UUG fidelity	eIF4H FP inh	others
Cc1ccc(C)c(N2CCN(C(=O)COc3cc(=O)n(C)c4ccccc34)CC2)c1	8.6	i	-12.8	2.9	-8.9	-11.2	-7.6	-5.7
COc1ccc(OC)c(/C=N/NC(=O)C(O)c2ccccc2)c1 (stereo unspecified)	-1.0	?	10.1	1.2	4.9	-15.5	-4.2	5.8
CC(=O)NC1C(=O)N(CCc2ccccc2)c2ccccc21 (stereo unspecified)	-85.7	i	-1.2	-4.0	6.5	nt	-4.3	0.9
C=C(C(=O)Oc1c(C(C)(C)C)cccc1C(C)(C)C)c1ccccc1	34.4	nt	nt	3.7	2.8	23.7	-11.0	nt
CCOC(=O)C1CCN(S(=O)(=O)c2c(Cl)ccc3nonc23)CC1	25.8	i	1.5	17.3	3.1	1.8	-20.7	-5.6
Cc1noc(C)c1COc1ccc(C(=O)N2CC(C)CC(C)C2)cc1 (stereo unspecified)	41.3	nt	nt	-0.5	-9.3	nt	5.1	nt
CC(C)Cn1c(N)c(C(=O)COC(=O)c2cc(F)cc(F)c2)c(=O)n(C)c1=O	-4.4	i	7.9	3.6	-2.3	8.8	nt	9.2
COCCOC(=O)c1c(C)oc2ccc(OCc3cc(C(=O)OC)oc3C)cc12	27.6	i	1.2	0.1	-1.1	-1.4	1.2&-12.1	-5.7
CCOC(=O)CN1C(=O)CN(c2ccc(C)c(C)c2)C1=O	-0.5	i	7.1	1.1	0.4	-6.0	-7.5	13.1
COc1ccc(C(=O)NNC(=O)C23CC4CC(CC(C4)C2)C3)c(OC)c1	-6.7	i	2.8	-1.6	-1.7	-12.0	-7.3	-4.7
Cc1ccc(N2C(=O)C(F)(F)C2c2ccccc2)cc1 (stereo unspecified)	-6.6	i	-10.3	1.8	4.3	-6.1	-14.8	11.3
COc1ccc2[nH]c(=O)c(CN(C(=O)c3cccnc3)c3cccc(C)c3)cc2c1	-38.7	i	-0.2	0.0	3.2	-14.9	-11.2	-6.9
O=C(Nc1cccc2ccccc12)c1ccccc1	-55.9	i	10.6	-2.9	-7.1	2.0	-9.6	4.4
COC(=O)C[C@H]1C[C@H]2c3cc(NC(=O)NC4CCCC4)ccc3O[C@H]2[C@@H](CO)O1	-22.1[16.7 µM]	nt	nt	2.8	2.9	nt	-9.4	nt
O=C(CNc1ccc(Oc2ccccc2)cc1)N1CCOCC1	nt	i	28.5	3.3	-0.1	7.6	-1.0	14.9
Cc1nc2c(-c3ccc(F)cc3)c(C)nn2c(C)c1CCC(=O)NCCN1CCOCC1	-15.0	i	4.7	-2.1	0.6	-4.7	2.1	-8.5
CC(=O)c1cccc(OCC(=O)Nc2cc(Cl)ccc2-n2cncn2)c1	nt	i	nt	0.0	1.5	-7.8	-17.6	nt
CCCC(c1nnnn1C(C)(C)C)N1CCN(Cc2ccccc2OC)CC1 (stereo unspecified)	-8.1	i	3.6	-3.0	0.2	nt	-7.9	-8.0
c1ccc(-c2cc(N3CCCCCC3)n[nH]2)cc1	-34.1	i	-6.7	1.5	-1.5	5.2	2.0	-7.6
